Screening results as filed in PubChem.
Vaccinia mCherry = vaccinia inhibition (mCherry reporter) | Vaccinia virus mCherry reporter infection, fluorescence; about a quarter of the inactives have no number | hit rate 0.63% among 310,000 | Potency, µM (titrated, usually from 36.5 µM), without a hit: at the top dose activity change, negative = inhibition, hits mostly inhibitors; active = well fitted inhibition curve with a large enough effect; inconclusive = small, poorly fitted or top-dose-only effect; inactive = no such curve, though single readings can be large or run the other way; tested in A549 cells; also: nearly all actives have a fitted effect of over 35% in size; inactives centre near -10
Vaccinia Venus = vaccinia inhibition (Venus reporter) | hit rate 0.46% among 330,000 | Potency, µM (titrated, usually from 36.5 µM), inactives show at the top dose activity change, negative = inhibition, actives largely listed as inhibitors | Vaccinia virus Venus reporter expression, fluorescence; active means well fitted inhibition curve with a large enough effect; inconclusive means small, poorly fitted or top-dose-only effect; inactive means no such curve, though single readings can be large or run the other way; tested in A549 cells; also: nearly all actives have a fitted effect of over 30% in size; inactives centre near -10
The depositor's hits bear a star; i = inactive; ? = inconclusive; / = not tested or not shown; & = joins results of further samples; [ ] = another dose, or the depositor's remark. % is scaled to controls: 0 for no effect and ±100 for the full control effect; potency is read from the fitted curve at half-maximal effect.

SMILES | Vaccinia mCherry | Vaccinia Venus
CC(=O)NC(CCc1ccc(Cl)c(Cl)c1)c1cccc(O)c(=O)c1 (configuration not stated) | ? | ?
COc1cc(SC#N)ccc1N=Cc1c(C)[nH]n(-c2ccc(C)cc2C)c1=O | / | -13%
COc1ccc(NS(=O)(=O)c2ccc(NC(C)=O)cc2)c(OC)c1 | -5% | -20%
O=c1[nH]c(=S)n(C2CC2)c(O)c1C=Nc1ccc2c(c1)OCO2 | i | 7%
Cc1cc(N(CCO)CCO)nc(-n2nc(C)cc2C)n1 | 3% | 7%
Fc1ccccc1Nc1nc2ccccc2n2nnnc12 | -10% | -15%
O=C(Nc1ccc2nc(N3CCOCC3)sc2c1)c1cc2ccccc2o1 | ? | -9%
CCOC(=O)c1cn(CC(=O)Nc2cccc(F)c2)nn1 | i | -6%
CC1CN(C(=O)CCC(=O)NC2CCN(Cc3ccccc3)CC2)c2ccccc2O1 (configuration not stated) | ? | -20%
O=C(Cn1cc(COc2ccc(Br)cc2[N+](=O)[O-])nn1)c1ccc(O)cc1 | i | -10%
CC(Sc1nccn1C)C(=O)c1ccc(Br)cc1 (configuration not stated) | -1% | 3%
Nc1ccccc1CCc1ccccc1N | ? | ?
COc1ccc(CNC(=O)c2nccnc2CO)cc1 | i | -15%
O=C(NC1CCCCC1)C1CCCN(S(=O)(=O)c2ccc(Br)s2)C1 (configuration not stated) | -5% | -9%
Cc1ccnc(NC(=O)c2cccc(NS(=O)(=O)c3ccccc3C)c2)c1 | / | -14%
COc1ccc(NC(=O)C(=O)NCCO)cc1Cl | i | 0%
CCOc1cc(NC(=S)NCc2ccco2)c(OCC)cc1NC(C)=O | -4% | -13%
CCCOC(=O)CC1C(=O)NCCN1Cc1cc(OC)cc(OC)c1 (configuration not stated) | i | 1%
Cc1ccc(N2CC(C(=O)Nc3nnc(SCC(N)=O)s3)CC2=O)cc1C (configuration not stated) | i | -16%
CCc1ccccc1NC(=O)[C@@H]1CCC(=O)N1C1OC(=O)c2ccccc21 (some centres not stated) | 9% | 8%
CCOc1ccc(NC(=O)CC2C(=O)N(c3ccc(F)cc3)C(=O)N2CCc2sccc2C)cc1 (configuration not stated) | -4% | -14%
CS(=O)(=O)Nc1nc2ccccc2[nH]1 | i | -20%
COc1cccc(CC(=O)Nc2ccc(-c3csc(C)n3)cc2)c1 | i[7.34 µM] | -1%[7.34 µM]
COC(=O)c1sc2cccc(F)c2c1S(=O)(=O)NC(C)c1ccccc1 (configuration not stated) | 1% | 6%
COC(=O)c1cccnc1Oc1ccccc1 | i | -8%
Cc1nc2c(OCC(=O)c3ccc(F)cc3)cccn2c1N(C)Cc1cccs1 | 17% | -11%
Cc1cccc(C)c1NC(=O)Nc1cccs1 | -11%[1.46 µM] | -11%
O=C1/C(=C\c2cccs2)Sc2ccc3ccccc3c21 | -10% | 8%
Cc1cc(-c2ccc([N+](=O)[O-])cc2)nc2ccccc12 | -14% | -8%
CCC(C)N(c1ccc(/C=C/c2ccnc3ccccc23)cc1)C(C)CC (configuration not stated) | -3% | 26%
Cc1onc(-c2ccccc2)c1C(=O)Oc1ccccc1 | -1% | -12%
Cc1ccc(C(=O)Nc2c(C)cc(-c3ccc(Cl)cc3)oc2=O)cc1 | -7% | -12%
COc1ccc(Cl)cc1-n1c(=S)sc2c(=O)n(-c3ccc(F)cc3)c(SCC(=O)O)nc21 | -1% | -7%
CCCCCCN1CCN(c2ccc(Cl)cc2)CC1 | -4% | -5%
Cc1csc(NC(=O)C2CSC3(C)CCC(=O)N23)n1 (configuration not stated) | i | -9%
Cc1cccc(C)c1OCC(O)Cn1ccnc1C (configuration not stated) | i | -10%
Cc1cc(S(=O)(=O)Nc2ccc(C(=O)NCC(c3ccccc3)N(C)C)cc2)ccc1F (configuration not stated) | -20% | -11%
Cc1cc(NC(=O)COC(=O)c2ccccc2NCCO)no1 | 4% | -9%
CCOC(=O)c1[nH]c(C)c(CCC(=O)NCc2ccc(CC)cc2)c1C | -6% | -10%
CCCCNC(=S)N1CCN(CC)CC1 | -13% | -8%
O=C(O)CN=C(NS(=O)(=O)c1ccc(Cl)cc1)c1ccc(F)cc1 | 2% | 1%
COCCNC(=O)CSc1ccc(Cl)cc1 | i | 14%
Cc1ccc(NC(=S)NC(NC(=O)Cc2cccc3ccccc23)C(Cl)(Cl)Cl)cc1 (configuration not stated) | i | -14%
CSc1ccc(CN2CCC2(C)C(=O)NCc2cccs2)cc1 (configuration not stated) | -4% | 1%
CC(C)P(=O)(c1cccc(C(=O)O)c1)C(C)C | i | -4%
NCC(=O)c1cccc([N+](=O)[O-])c1 | -17% | 3%
COc1ccc(OC)c(CNC(=O)C2CCN(C(=O)N(C)C)CC2)c1 | i | -1%
Cc1ccc(OCC(=O)Nc2nnc(SCc3cc(=O)c4ccccc4[nH]3)s2)cc1 | 0% | 1%
COc1ccccc1/C=C1\SC(=S)N(CCC(=O)NCCCN2CCOCC2)C1=O | -39% | -20%
S=c1nc[nH]c2nc[nH]c12 | -5%&-12%&-15% | -8%&0%&-6%

Next entries:
SMILES | Vaccinia mCherry | Vaccinia Venus
CCOc1ccc(CN(C(=O)c2cc3ccccc3oc2=O)C2CC2)cc1 | i | -19%
COc1ccc2[nH]c(-c3ccccc3)c(CCNC(C)=O)c2c1 | -11% | -3%
O=[N+]([O-])c1ccc(C(c2sc3nc(-c4ccco4)nn3c2O)N2CCN(c3cccc(Cl)c3)CC2)cc1 (configuration not stated) | -4% | -16%
Cc1cc(C)n(C(=O)CNC(=O)c2cccc(Br)c2)n1 | i | -1%
CCCOc1ccc2oc(=O)c3c(c2c1)CCCN3C(=O)CN1CCCC(C(=O)OCC)C1 (configuration not stated) | / | ?
CCOc1ccc(NC(=O)N2CCC(C(N)=O)(N3CCCCC3)CC2)cc1 | 8% | 7%
CCN(CC)CCNS(=O)(=O)c1ccc(/C=C/C(=O)O)cc1 | i | -18%
COCCN(Cc1ccccc1)C(=O)c1cccc(S(=O)(=O)N2CCN(c3ccccc3)CC2)c1 | -9% | -19%
CCN(CC)CCn1c2ccccc2c2n[nH]c(=S)nc21 | -2% | 0%
CCOC(=O)/C=C/COc1ccccc1[N+](=O)[O-] | -26% | -22%
COc1ccc(NC(=O)Cn2c3ncccc3c(=O)n2-c2ccc(C)c(C)c2)c(OC)c1 | -17%[7.34 µM] | -14%[7.34 µM]
O=C(NCC1CCCO1)c1onc(CSc2ccc(F)c(F)c2)c1C(=O)O (configuration not stated) | i | -5%
CC(C(=O)c1ccccc1)[n+]1cccc(Cl)c1 (configuration not stated) | -19% | ?
Cc1cc2ncn(-c3ncnc4sc(C)c(C)c34)c2cc1C | / | -17%
Cc1ccc(CNC(=O)c2cnn(-c3ccc(F)cc3F)c2C2CCN(C(=O)OC(C)(C)C)CC2)cc1 | -18% | -22%
COc1cccc(/C=C/c2nc3ccccc3c(=O)n2-c2ccc(C)c(C)c2)c1OC | -8% | -25%
Cc1ccsc1C(=O)NCc1ccc(F)cc1 | -23% | 15%
COc1ccc(OC)c(S(=O)(=O)N2CCC(C(=O)Nc3cc(C)ccc3C)CC2)c1 | -14% | -13%
C=CCOc1ccccc1OCC(O)CNC(C)C (configuration not stated) | -16% | -15%
C=CCN1C(=O)c2ccc(C(=O)N(C)CC(=O)Nc3ccc(OCC)c(OCC)c3)cc2C1=O | i | -7%
C#CCN1C=CC(=O)[C@@H](OC(=O)Nc2ccc(Cl)cc2)[C@H]1c1ccccc1Br | -6% | -6%
O=C(C1CC1)N1CCc2cc(S(=O)(=O)N3CCOCC3)ccc21 | i | -6%
C/C(=N\NC(=S)NCC(C)(C)C)c1cc(F)cc(F)c1O | i | -14%
CC(C)(C)NC(=O)COC(=O)c1ccccc1Nc1ccc(SC(F)F)cc1 | -26% | -15%
CN(Cc1ccccc1)C(=O)c1cccc(NC(=O)Cc2ccc(NC(=O)C3CCCN(C(=O)c4ccccc4)C3)cc2)c1 (configuration not stated) | 9% | 1%
O=C(COC(=O)c1ccc(Cl)cc1[N+](=O)[O-])NNC(=O)c1cccs1 | -8% | -2%
CC(C)(C)n1nc2c(c1NC(=O)c1ccc(F)c(F)c1)CS(=O)(=O)C2 | -10% | -3%
CC1=C(C(=O)OC(C)C)C(c2ccc(Br)s2)NC(=O)N1C (configuration not stated) | i | -17%
CCN(CC(=O)Nc1ccccc1C(F)(F)F)C(=O)Cc1ccccc1 | -2% | 6%
Clc1cccc(CNc2ccn3nc(-c4cccs4)cc3n2)c1 | i | -8%
Cc1oc(-c2ccccc2Cl)nc1CS(=O)(=O)CC(=O)NC(C)CCc1ccccc1 (configuration not stated) | -22% | -15%
Cc1ccc(O)cc1 | -8% | -10%
COc1cc(/C=C2\SC(=O)N(CC(=O)Nc3ccccc3F)C2=O)cc(Cl)c1O | 0% | 2%
O=C(/C=C/c1ccccc1)NC(=S)Nc1ccccc1C(=O)NC1CCCCC1 | i | -11%
C#CCn1cc(CNC[C@H]2O[C@@H](n3cnc4c(=O)[nH]c(N)nc43)[C@H](O)[C@@H]2O)c2ccccc21 | 5% | 0%
COCCNC(=O)/C(C#N)=C/c1c(N2CCN(C)CC2)nc2c(C)cccn2c1=O | -17% | -1%
O=S(=O)(/N=C(/Nc1cccc2ccccc12)c1ccc(F)cc1)c1ccccc1 | -21% | -18%
CCN(C(=O)Cc1nc(-c2ccc(OC)cc2)no1)c1cccc(Cl)c1 | -13% | -10%
N#Cc1ccc(COC(=O)CC(NC(N)=O)c2ccc(Cl)cc2)cc1 (configuration not stated) | -13% | -5%
C=C(C)COc1ccc(-c2[nH]ncc2Oc2cccc(OC)c2)c(O)c1 | ? | ?

Profiles as entered above.
COCCNC(=O)/C(C#N)=C/c1c(N2CCN(C)CC2)nc2c(C)cccn2c1=O is listed as Vaccinia mCherry: -17%; Vaccinia Venus: -1%
C#CCn1cc(CNC[C@H]2O[C@@H](n3cnc4c(=O)[nH]c(N)nc43)[C@H](O)[C@@H]2O)c2ccccc21 is listed as Vaccinia mCherry: 5%; Vaccinia Venus: 0%

Later entries:
SMILES | Vaccinia mCherry | Vaccinia Venus
CN(C)C(=O)Oc1ccnc2cc(Cl)ccc12 | -11% | 1%
COc1ccc(OC)c(CNC(=O)c2c(C)oc3ncn(C)c(=O)c23)c1 | i | -8%
COC(=O)c1ccc(OC)c(CSc2nnc(-c3ccc(C(C)(C)C)cc3)o2)c1 | i | ?
O=c1c2cc(C(F)(F)F)ccc2sn1-c1ccccc1 | ? | ?
Cc1ccc2nc(COc3cccc(NC(=O)c4cccc(Cl)c4)c3)cc(=O)n2c1 | -8% | -12%
O=C(NCc1ccc2[nH]c3c(c2c1)CCCC3)c1ccc(S(=O)(=O)N2CCOCC2)cc1 | -25% | ?
COc1ccccc1CNC(=S)Nc1ccc(F)cc1 | i | -18%
COc1ccccc1-n1c(CNC(=O)c2ccc(S(=O)(=O)N3CCCCC3)cc2)n[nH]c1=S | -7% | 1%
COc1ccc(CCNC(=O)c2cccc(NC(=O)CC3SC(N4CCCCC4)=NC3=O)c2)cc1OC (configuration not stated) | i | -13%
CCO[C@@H]1OC(C(=O)O)=C[C@H](c2cn(C(C)=O)c3ccccc23)[C@H]1CCCO | i | 5%

At a glance, some entries already given:
SMILES | Vaccinia mCherry | Vaccinia Venus
CC(=O)NC(CCc1ccc(Cl)c(Cl)c1)c1cccc(O)c(=O)c1 (configuration not stated) | ? | ?
COc1cc(SC#N)ccc1N=Cc1c(C)[nH]n(-c2ccc(C)cc2C)c1=O | / | -13%
COc1ccc(NS(=O)(=O)c2ccc(NC(C)=O)cc2)c(OC)c1 | -5% | -20%
O=c1[nH]c(=S)n(C2CC2)c(O)c1C=Nc1ccc2c(c1)OCO2 | i | 7%
Cc1cc(N(CCO)CCO)nc(-n2nc(C)cc2C)n1 | 3% | 7%
Fc1ccccc1Nc1nc2ccccc2n2nnnc12 | -10% | -15%
O=C(Nc1ccc2nc(N3CCOCC3)sc2c1)c1cc2ccccc2o1 | ? | -9%
CCOC(=O)c1cn(CC(=O)Nc2cccc(F)c2)nn1 | i | -6%
CC1CN(C(=O)CCC(=O)NC2CCN(Cc3ccccc3)CC2)c2ccccc2O1 (configuration not stated) | ? | -20%
O=C(Cn1cc(COc2ccc(Br)cc2[N+](=O)[O-])nn1)c1ccc(O)cc1 | i | -10%
CC(Sc1nccn1C)C(=O)c1ccc(Br)cc1 (configuration not stated) | -1% | 3%
Nc1ccccc1CCc1ccccc1N | ? | ?
COc1ccc(CNC(=O)c2nccnc2CO)cc1 | i | -15%
O=C(NC1CCCCC1)C1CCCN(S(=O)(=O)c2ccc(Br)s2)C1 (configuration not stated) | -5% | -9%
Cc1ccnc(NC(=O)c2cccc(NS(=O)(=O)c3ccccc3C)c2)c1 | / | -14%
COc1ccc(NC(=O)C(=O)NCCO)cc1Cl | i | 0%

New compounds follow:
SMILES | Vaccinia mCherry | Vaccinia Venus
O=C1Nc2c(c(=O)[nH]c(=O)n2-c2ccc(F)cc2)C1(NS(=O)(=O)c1ccccc1)C(F)(F)F (configuration not stated) | -1% | -7%
Cc1cc([N+](=O)[O-])cc([N+](=O)[O-])c1NCC(C)C | -28% | -5%
Cc1nnc(C)n1N1C(=O)c2cccc3cccc(c23)C1=O | -11% | -2%
Cc1ccc(S(=O)(=O)Nc2cc3c(cc2C#N)OCO3)cc1C(N)=O | -9% | -1%
O=C(c1ccco1)N1CCCC(c2ccccc2)C1 (configuration not stated) | -25% | -15%
COc1ccccc1CNC(=O)C1CC(=O)N(c2ccc(C)c(C)c2)C1 (configuration not stated) | -6% | -10%
Cn1ncc(C(=O)N=S(C)(=O)c2ccccc2)c1[N+](=O)[O-] (configuration not stated) | i | -2%
COc1ccc2c3n([n+]([O-])c2c1)CCN=C3c1cc(Cl)c(N)c(Cl)c1 | -20% | -17%
Cc1cc(C)nc(Sc2c(C)nn(-c3ccccc3)c2C)n1 | / | -9%
Clc1ccc(/C=C/c2ccnc3ccccc23)c(Cl)c1 | -14% | ?
